MT1-MMP act inh: blockers of MT1-MMP proenzyme processing, primary screen, HT1080 RFP-PRO-GFP cells, GFP/RFP fluorescence; AID 651647, 2012; GFP/RFP ratio fluorescence, overnight; percent of plate control window, DMSO zero; actives 0.061% (n = 360,000); GFP/RFP ratio change, % at 20 µM; Matrix metalloproteinase-14 (Homo sapiens), P50281;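 active = GFP/RFP ratio change of at least 30% with cell ATP level not reduced by more than half and red fluorescence within 50% of control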; also: strong numbers were not always called active
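Assay system: RFP-PRO-GFP reporter HT1080 cells; read-out basis: GFP/RFP fluorescence ratio; benchmarks: DMSO wells and RFP-L50D-GFP cells; doses: 20 µM single dose, 1% DMSO; schedule: overnight cell settling, then overnight compound exposure, 37 °C, 5% CO2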
CSC inhib: cancer stem cell viability inhibitors, primary screen, luminescence. inhibition, % at 7.5 µM. actives 1.1% (n = 300,000). AID 2717, 2010. cancer stem cell-like cells viability;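 active = mean at 75% or more and at least half the replicates too; inconclusive = mean and replicates disagree; tested in HMLE shEcad cells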;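 also: 0% = median of negative and 100% = median of positive control wells; the first replicate is given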
eIF4H FP inh: human eIF4H binding inhibitors, primary screen, translation initiation inhibitor project, biochemical, uHTS, fluorescence polarization. Eukaryotic translation initiation factor 4H (Homo sapiens), Q15056. eIF4H fluorescence polarization binding assay. inhibition, % at 35 µM. actives 0.94% (n = 290,000);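 active = 50% or more with normal probe brightness, or confirmed in later tests; inconclusive = above 50% with abnormal brightness, or retests that disagree; inactive = below 50% or failed in later tests; about a fifth of its hits are not listed in these tables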;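 also: calls also rest on retests at 20 µM and on dose response follow-up; 0% = protein and probe with vehicle and 100% = probe without protein; strong numbers were not always called active; many hits fall short of the cut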
HIV Env fusion: inhibitors of HIV-1 Env-driven cell-cell fusion, primary screen, HeLa-JRFL effector, CEM21 target cells, luciferase; inhibition, % at 12.3 µM; actives 1.1% (n = 360,000);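 active = mean replicate inhibition score of at least 50 and every replicate individually at or above 50; inconclusive = only one of the two criteria met; inactive = mean below 50 and not all replicates reaching 50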;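 also: 0% = plate neutral controls and 100% = maraviroc near 300 nM; one replicate is shown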
Rce1 inh: yeast Rce1p protease inhibitors, primary screen, biochemical, fluorescence, cell-free homogeneous; actives 0.27% (n = 290,000); yeast membranes, quenched prenylated peptide cleavage fluorescence; CAAX prenyl protease 2 (Saccharomyces cerevisiae (strain ATCC 204508 / S288c)), Q03530; calls only;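 active = fall in fluorescence gain of 50% or more versus controls, with final raw signal at or below 3038400; inconclusive = same 50% fall but final raw signal above 3038400; inactive = fall in fluorescence gain under 50%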;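 also: plate controls were neutral control wells for no effect and wells lacking membranes for full effect; tested at 10 µM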
Target sequence (Q03530 whole entry, looked up): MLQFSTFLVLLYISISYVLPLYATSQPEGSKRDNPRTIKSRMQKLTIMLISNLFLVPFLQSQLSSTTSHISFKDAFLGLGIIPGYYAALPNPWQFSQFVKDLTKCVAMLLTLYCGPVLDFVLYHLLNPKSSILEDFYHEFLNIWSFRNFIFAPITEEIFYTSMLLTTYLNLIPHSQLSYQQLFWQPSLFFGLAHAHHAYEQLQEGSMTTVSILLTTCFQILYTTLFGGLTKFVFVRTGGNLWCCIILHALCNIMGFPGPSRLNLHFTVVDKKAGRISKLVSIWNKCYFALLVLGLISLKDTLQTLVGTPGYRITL
UUG fidelity: modulators of yeast start codon fidelity, primary screen, whole organism, S. cerevisiae, single point, plate reader; S. cerevisiae UUG-firefly luciferase reporter, luminescence/redox ratio; activity score, % at 18.7 µM; actives 0.13% (n = 350,000); AID 602363, 2012;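 active = replicate mean at a twofold rise or more, about +100% in these data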;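 also: firefly luciferase made from a UUG start codon reports start codon fidelity; reporter light over untreated wells divided by growth signal over untreated wells; some hits fall short of that in this replicate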
PABP FP inh: PABP poly(A) RNA binding inhibitors, primary screen, biochemical, fluorescence polarization, uHTS; Polyadenylate-binding protein 1 (Homo sapiens), P11940; inhibition, % at 35 µM; actives 1% (n = 290,000); AID 2014, 2009;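 active = 50% or more with normal probe brightness, or confirmed in later tests; inconclusive = above 50% with abnormal brightness, or retests that disagree; inactive = below 50% or failed in later tests; about a fifth of its hits are not listed in these tables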;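 also: calls also rest on retests at 20 µM and on dose response follow-up; controls were probe without protein and protein plus probe with vehicle; some compounds called inactive have numbers as strong as hits; many hits fall short of the cut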
MT1-MMP act inh RFP: recorded beside MT1-MMP act inh, whose call it bears; RFP signal change, %; measured here: RFP expression control read;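 0 = vehicle wells; hits needed this value within 50% of zero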
Active calls of the source: *; i = inactive; ? = inconclusive; nt = no result given. Random draw from the library. Share with any hit: about 2.9%.

SMILES	MT1-MMP act inh	MT1-MMP act inh RFP	CSC inhib	eIF4H FP inh	HIV Env fusion	Rce1 inh	UUG fidelity	PABP FP inh
CN(c1ccccc1)S(=O)(=O)c1cccc(NC(=O)c2ccc3ncsc3c2)c1	-4	-25	4	0	13	i	-11	-1
Cc1[nH]c2ccccc2c1C(=O)CSc1nc2ccccc2c(=O)n1-c1ccccc1F	nt	nt	nt	-9	0	i	nt	-22
C=CCc1cc(/C=N\NC(=O)CSc2nnc(CCCc3ccc(OC)c(C)c3)o2)cc(OC)c1O	7	-7	-7	-5	nt	i	-16	48
Cn1cc(Cl)c(-c2n[nH]c(=S)n2-c2ccc(F)cc2)n1	3	6	-13	1	-12	i	nt	19
O=C(CCl)N(c1ccc(Cl)cc1)c1c[nH]c2ccccc12	-20	-21	88*	5	43	i	-29	1
COc1cc(OC)cc(C(=O)NCC(=O)OCC(=O)c2ccc3c(c2)-c2ccccc2C3)c1	2	6	0	-19	-26	i	nt	-21
CCOC(=O)C1=C[C@@H](c2ccccc2)N(S(=O)(=O)c2ccc(C)cc2)[C@H]1c1ccc(OC)cc1	-5	-10	nt	nt	34	nt	-13	nt
CCOc1ccc(N(CC(=O)NCC2CCCO2)S(=O)(=O)c2ccc(OC)c(OC)c2)cc1 (configuration not stated)	1	4	0	1	nt	i	1	-9
FC(F)(F)c1cnc(Sc2nnc(-c3cccs3)n2CC2CCCO2)c(Cl)c1 (configuration not stated)	2	0	2	-10	-10	i	-6	4
Cc1ccc(C)c(S(=O)(=O)Nc2ccc(S(=O)(=O)Nc3ncccn3)cc2)c1	0	2	nt	nt	-2	nt	-6	nt
COc1ccc(N2CCN(c3nc(NCCO)nc(N4CCOCC4)n3)CC2)cc1	3	5	8	-19	-111	i	40	3
Cc1ccc(C(=O)NN=C2CCCCCC2)s1	3	9	-2	-2	-8	i	-16	-4
CCOC(=O)C1=NN(C(C)=O)C2C(=O)N(CC)C(=O)C12 (configuration not stated)	1	-1	-7	-11	1	i	-30	5
CCOc1ccc(Nc2nc(Cc3nnc(SCC(=O)N(CC)CC)n3C)cs2)cc1	-1	-1	-15	6	-26	nt	-29	-5
C/C(=N\NC(=O)c1ccc(O)cc1)c1cccc(NC(=O)c2ccc(Cl)cc2)c1	7	-2	22	nt	-16	i	-18	nt
O=C(N/N=C/c1sc(=O)[nH]c1-[n+]1ccccc1)c1ccccc1[O-]	-4	1	-12	40	-83	i	-22	42
O=C(NCCN1CCN(Cc2ccccc2Cl)CC1)Nc1ccccc1	-1	-2	1	-2	nt	i	-16	2
Cc1nc2ccccc2c(=O)n1CC(=O)N1CCOCC1	-1	4	14	-6	6	i	-7	-4
COc1ccc(-n2nnc3c(SCC(=O)NCc4ccco4)ncnc32)cc1	3	-2	2	7	nt	i	-10	-3
COc1ccc2cc(C(=O)N3CCN(C)CC3)[nH]c2c1	3	6	-3	8	5	i	-11	5
CC[C@@]1(C(=O)OC)N[C@H](CN(C)C(=O)c2ccc(F)cc2)[C@@H]2C(=O)N(Cc3ccccc3)C(=O)[C@@H]21	3	3	5	nt	36	nt	-28	nt
CCCN(CCC)S(=O)(=O)c1ccc(Cl)c([N+](=O)[O-])c1	-4	-2	6	-4	3	nt	nt	-7
CC1CCCCN1C(=O)c1cc2c(=O)n3ccccc3nc2s1 (configuration not stated)	0	2	nt	-2	-9	i	-8	16
OC(c1ccccc1)c1nc(-c2ccc(F)c(Cl)c2)cs1 (configuration not stated)	3	-2	nt	nt	-17	nt	-2	nt
Cc1cccn2c(=O)c3cc(C#N)c(=N)n(CCN4CCOCC4)c3nc12	7	1	nt	-1	nt	i	-20	4
Further structures
SMILES	MT1-MMP act inh	MT1-MMP act inh RFP	CSC inhib	eIF4H FP inh	HIV Env fusion	Rce1 inh	UUG fidelity	PABP FP inh
Cc1cc(C)n(CCNS(=O)(=O)c2ccc(C)c(C)c2)n1	-1	-4	3	-5	-1	i	0	3
O/N=C1/CCCCc2sccc21	2	1	-3	1	-75	i	6	-14
Cc1cc(C(=O)CCC(=O)Nc2cccc(F)c2)c(C)s1	1	-2	nt	nt	0	nt	-1	nt
Cc1ccc(S(=O)(=O)/C(C#N)=C/c2c(N3CCN(C)CC3)nc3ccccn3c2=O)cc1	-4	2	-7	13	nt	i	-13	1
CCOC(=O)c1sc(NC(=O)CN(CC)CC)c(C(=O)OCC)c1C	-5	-4	-20	-2	nt	i	nt	-1
Cc1c(NC(=O)CSC(=S)N2CCCC2)c(=O)n(-c2ccccc2)n1C	2	-1	-6	nt	-8	i	-9	nt
CCC(C)NS(=O)(=O)c1ccc(NC(=O)CNCc2cccs2)cc1 (configuration not stated)	1	2	nt	nt	-5	nt	-4	nt
CCC1Oc2ccc(C)cc2N(CC(=O)N(Cc2ccc(C)o2)C2CC(C)(C)NC(C)(C)C2)C1=O (configuration not stated)	-5	-4	-7	-9	-99	i	-13	-7
CC(N=C1NS(=O)(=O)c2ccccc21)C(=O)OCC(=O)N(C)C1CCS(=O)(=O)C1 (configuration not stated)	-3	1	-10	nt	7	nt	-29	nt
CC(C)c1nnc(NC(=O)c2ccc3ccccc3c2)s1	5	-3	13	-2	-87	i	-17	12
O=C(COc1ccccc1F)Nc1ccc(S(=O)(=O)NCc2ccco2)cc1	7	0	15	1	nt	i	-4	-1
COc1cc(SC)ccc1C(=O)Nc1ccc(C)cc1C	-1	2	7	6	-17	i	-5	12
Nc1c(Cl)c(Cl)nc(C(=O)N/N=C/c2ccco2)c1Cl	-2	3	-6	3	-2	i	6	-5
COc1ccc(C(=O)OC(C)C(=O)NC(C)CCc2ccccc2)cc1[N+](=O)[O-] (configuration not stated)	2	-2	10	-7	0	i	-5	11
O=[N+]([O-])CC(=Nc1ccc(Cl)cc1)N/N=C\c1oc(O)c2ccccc12	-7	-3	nt	20	i	i	-9	14
CC1(C)CC(=O)C(C=NCC2CCNCC2)=C(O)C1	0	3	-3	1	nt	i	-13	0
Cc1cc(C(=O)OCC(=O)Nc2c(Cl)cccc2Cl)c(C)o1	-3	-6	1	nt	5	nt	-16	nt
Cc1ccc(C)c(-n2ccnc2SCC(N)=O)c1	-1	0	-14	5	-7	i	nt	3
C#CCOCCOCCOCCNc1nc(N2CCN(C(=O)[C@H]([C@@H](C)CC)n3cc(CCC(=O)O)nn3)CC2)nc(N2CCN(C(=O)[C@H](CCCCN)n3cc(CCC(=O)O)nn3)CC2)n1	1	6	nt	nt	-15	nt	18	nt
COc1ccc(NC(NC(=O)c2ccc(OC)cc2)C(Cl)(Cl)Cl)cc1 (configuration not stated)	7	-3	3	-2	?	i	-9	-5
CCOc1ccc(N2C(=O)CC(N3CCN(c4ccc([N+](=O)[O-])cc4)CC3)C2=O)cc1 (configuration not stated)	3	-2	3	8	-23	i	0	-3
Cc1csc2nc(CNS(=O)(=O)c3cccnc3)cn12	-11	-27	-13	nt	nt	i	-5	nt
COc1ccc(-n2c(SCC#N)nc3ccccc3c2=O)cc1	-1	2	-12	1	nt	i	-23	0
CN(Cc1c(F)cccc1Cl)C(=O)c1ccc(NC(=O)CC2SC(N3CCCC3)=NC2=O)cc1 (configuration not stated)	3	4	-11	nt	nt	i	-38	nt
C[C@H]1CN([C@@H](C)CO)C(=O)CCCn2cc(nn2)CO[C@@H]1CN(C)C(=O)Nc1ccc(C(F)(F)F)cc1	8	5	nt	nt	4	nt	3	nt
(cont.)
SMILES	MT1-MMP act inh	MT1-MMP act inh RFP	CSC inhib	eIF4H FP inh	HIV Env fusion	Rce1 inh	UUG fidelity	PABP FP inh
COc1cccc(/C=N/Nc2nn3cnnc3c3ccccc23)c1	11	3	13	-9	-13	i	-19	-6
CCC1(CC)C(=O)C2=C3C1[C@H](C(=O)OC)C=C(C(=O)OC)C[C@H]3[C@H]1C(=O)N(Cc3ccccc3)C(=O)[C@H]1[C@H]2C (some centres not stated)	-7	-4	-6	nt	13	i	22	nt
Oc1ccccc1/C=N/n1cnnc1	1	2	-1	1	nt	i	-22	3
Cc1ccc(S(=O)(=O)N2C(=O)/C(=C3\SC(=S)NC3=O)c3ccccc32)cc1	nt	nt	40	0	nt	i	nt	21
COc1cccc(CC2(CO)CCCN(Cc3ccccc3Cl)C2)c1 (configuration not stated)	-2	-1	43	-6	-9	i	-9	-6
C=CCN1C(=O)/C(=C/c2ccc(N(C)C)cc2)S/C1=N\c1nnc(CC)s1	nt	nt	nt	?	nt	i	nt	?
CCOC(=O)c1ccc(-n2cc(C(=O)c3cccnc3)nn2)cc1	1	5	-1	-8	-12	i	-3	-4
CCOC(=O)CCCc1sc(N)nc1-c1[nH]c(=O)[nH]c1C	-1	3	3	7	nt	i	-20	20
CCOc1ccc(S(=O)(=O)N2CCCC(C(=O)NCc3ccncc3)C2)cc1C (configuration not stated)	0	-12	-2	3	40	i	10	0
COC(=O)c1ccc(CSc2nnc(-c3ccc4c(c3)OCO4)n2-c2ccccc2)o1	5	4	-2	4	-22	i	9	4
O=C(COc1ccc(-c2ccccc2)cc1)NNC(=O)Nc1ccc(F)cc1F	-1	1	-15	3	3	i	-8	4
CCOC(=O)Cc1csc(NC(=O)NC2(C(F)(F)F)Oc3ccc(Cl)cc3O2)n1 (configuration not stated)	4	-4	38	-9	nt	i	nt	16
COc1cccc(NC(=S)N2CCCC2c2ccc(OC)c(OC)c2)c1 (configuration not stated)	4	-2	9	-2	0	i	-39	7
COc1ccccc1N1CCCSC1=Nc1ccccc1	12	11	nt	nt	10	nt	-10	nt
Cc1ccc(C(C(=O)NCCc2ccccc2)N(C(=O)c2csnn2)C2CC2)o1 (configuration not stated)	-1	-2	-5	-7	-25	i	-6	-9
NC(=O)c1ccc(NC(=O)CNc2cc(S(=O)(=O)N3CCOCC3)ccc2N2CCCC2)cc1	-2	5	nt	nt	-7	nt	-8	nt
Cc1ccc(C)c(OCC(=O)N2CCN(c3ncccn3)CC2)c1	-1	-3	-4	nt	nt	nt	-15	nt
Cc1ccc([C@H]2C[C@@H](n3cc(COC(=O)c4ccccc4)nn3)[C@H](O)CN2CC2CCCCC2)cc1	0	-1	nt	nt	-14	nt	11	nt
Cc1cc(Nc2ccccc2)n(-c2ccc(Br)cc2)n1	2	-4	28	-5	nt	i	nt	-19
Clc1ccc(-c2cn(-c3ccc(Cl)cc3)c3[n+]2CCCCC3)cc1	1	-2	-12	-6	3	i	nt	6
Cc1cc(C)n2nc(C(=O)OCC(=O)NNC(=O)c3ccc(Cl)cc3)nc2n1	-3	1	-13	nt	-5	i	-32	nt
C/C(Cc1ccccc1)=N\NC(=O)CNC(=O)c1ccccc1O	7	4	-13	-5	-17	i	-29	-1
Cc1nnc(NC(=O)c2ccc(S(=O)(=O)N3CC(C)CC(C)C3)cc2)o1 (configuration not stated)	-4	-3	33	3	-11	i	3	-10
Cc1ccc(-c2cnn(-c3cccc(C(F)(F)F)c3)c2N)cc1	2	-6	nt	-6	-41	i	10	4
CCC(C)Nc1c2c(nc3c(-c4ccccc4)c(C)nn13)CCC2 (configuration not stated)	0	-6	30	-5	nt	i	-11	-2

Bioassay records as filed in PubChem.
